# RE007 growth inh – less growth of the S. pombe RE007 Vpr strain | S. pombe RE007 Vpr strain, BacTiter-Glo ATP luminescence, 24 h; control for the full effect not named in the record | Potency, µM (highest dose often 92.2 µM), without a hit: at the top dose activity change, negative = less growth | actives 0.21% (n = 360,000); active = well fitted falling curve with a large enough effect; inconclusive = small, poorly fitted or top-dose-only effect; inactive = no such curve, though single readings can be large or run the other way;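 also: % is scaled to controls: 0 for no effect and ±100 for the full control effect; nearly all actives have a fitted effect of over 50% in size; the assay follows cell death caused by Vpr and the record does not say whether a fall means rescue or toxicity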
#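 Fission yeast strain RE007, carrying one chromosomally integrated HIV-1 vpr copy, was seeded at OD 0.01 in PMG+AL medium with 23 nL pinned compound. After 24 h at 30 °C and 99% humidity, viability was read by BacTiter-Glo luminescence.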
# Lassa entry inh – Lassa virus entry inhibition; actives 1.2% (n = 300,000); Potency, µM (doses to about 37.9 µM), for the others: top-dose activity change, negative = inhibition, actives largely listed as inhibitors; Lassa virus pseudotype entry inhibition, cell reporter; control for the full effect not named in the record; active means well fitted inhibition curve with a large enough effect; inconclusive means small, poorly fitted or top-dose-only effect, or effect the other way; inactive means flat fitted curve, though single readings scatter; tested in HEK293 cells; also: % is scaled to controls: 0 for no effect and ±100 for the full control effect; nearly all actives have a fitted effect of over 50% in size; luciferase read-out
# Cruzain noTriton – inhibitors of Trypanosoma cruzi cruzain without detergent | P25779 | actives 2.3% (n = 200,000) | purified cruzain, Z-FR-AMC fluorescence, no detergent | Potency, µM, for inactives: max response, negative = inhibition, most hits filed as inhibitors; active = well fitted curve in the direction sought with a large enough effect; inconclusive = small, poorly fitted or top-dose-only effect, or another doubt; inactive = no such curve, though single readings can be large; an effect the other way counts as inactive or inconclusive;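 also: plate controls were enzyme without inhibitor for no effect and buffer without enzyme for full effect; nearly all actives have a fitted effect of over 40% in size; top concentration of the series not given in the record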
# Target sequence (P25779 123-467 limits assumed): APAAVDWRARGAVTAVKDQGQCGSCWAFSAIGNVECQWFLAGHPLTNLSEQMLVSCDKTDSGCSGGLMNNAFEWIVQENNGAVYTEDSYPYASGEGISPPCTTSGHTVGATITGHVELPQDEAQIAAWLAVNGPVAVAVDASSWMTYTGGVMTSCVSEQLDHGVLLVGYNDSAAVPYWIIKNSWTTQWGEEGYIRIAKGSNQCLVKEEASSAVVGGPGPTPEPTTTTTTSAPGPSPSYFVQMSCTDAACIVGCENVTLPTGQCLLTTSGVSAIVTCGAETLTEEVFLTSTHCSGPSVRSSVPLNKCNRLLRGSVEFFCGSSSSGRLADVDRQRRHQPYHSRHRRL
#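 Detergent-free condition (0.00005% Triton X-100) in acetate buffer pH 5.5 with DTT. 1.5 nM enzyme and compound were pre-mixed 15 min, then 2 uM Z-FR-AMC substrate added; reaction progress from fluorescence change between first and third reads (60 s).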
# Cruzain Triton – cruzain (T. cruzi) inhibition with detergent; Potency, µM, without a hit: max response, negative = inhibition, usual class: inhibitors; P25779; AID 1478; purified cruzain, Z-FR-AMC fluorescence, 0.01% Triton; actives 0.43% (n = 200,000); active = well fitted curve in the direction sought with a large enough effect; inconclusive = small, poorly fitted or top-dose-only effect, or another doubt; inactive = no such curve, though single readings can be large; an effect the other way counts as inactive or inconclusive;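 also: plate controls were neutral wells for no effect and buffer without enzyme for full effect; nearly all actives have a fitted effect of over 40% in size; top concentration of the series not given in the record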
#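 Sodium acetate buffer (100 mM, pH 5.5) containing 5 mM DTT and 0.01% Triton X-100 hosted 1.5 nM cruzain and test compound for 15 min at room temperature. Cleavage of 2 uM Z-FR-AMC was then tracked by fluorescence.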
# MARV entry inh – inhibitors of Marburg virus binding or cell entry; Potency, µM (series often up to 37.8 µM), without a hit: at the top dose activity change, negative = inhibition, hits mostly inhibitors; actives 1.8% (n = 300,000); Marburg virus pseudotyped entry inhibition, cell reporter; control for the full effect not named in the record; about a third of the inactives were read at about 46 µM; active = well fitted inhibition curve with a large enough effect; inconclusive = small, poorly fitted or top-dose-only effect, or effect the other way; inactive = flat fitted curve, though single readings scatter; tested in HEK293 cells; about a fifth of its hits are not listed in these tables; also: % is scaled to controls: 0 for no effect and ±100 for the full control effect; luciferase read-out
# SARS PLpro yeast – SARS-CoV PLP inhibition in yeast | S. cerevisiae expressing SARS-CoV PLpro, growth rescue; control for the full effect not named in the record | Potency, µM (top dose mostly 32.9 µM), inactives show top-dose activity, positive = growth rescue | actives 0.19% (n = 330,000); also: 0% is about no effect; nearly all actives have a fitted effect of over 55% in size; growth read by luminescence after 48 h
# NS1 function inh – blocks influenza NS1 protein function; S. cerevisiae slowed by influenza A NS1, growth recovery by OD600; Potency, µM (doses to about 46.1 µM), without a hit: at the top dose activity, positive = more growth; actives 0.4% (n = 270,000); AID 2326; also: actives are rising curves; nearly all actives have a fitted effect of over 50% in size
#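 S. cerevisiae expressing influenza A NS1, grown in glucose, washed, then diluted 1:100 into pH 6.0 -URA galactose medium with 23 nl compound. Growth recovery read as OD600; NS1-free strain serves as control.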
# StopGo reporter – FMDV 2A StopGo reporter, luciferase signal; actives 1.2% (n = 410,000); Potency, µM (top dose mostly 57.9 µM), inactives show at the highest dose signal change, negative = less light; human cells with a luciferase reporter of 2A StopGo recoding; control for the full effect not named in the record; active = well fitted falling curve with a large enough effect; inconclusive = small, poorly fitted or top-dose-only effect; inactive = no such curve, though single readings can be large or run the other way; tested in HEK293T cells; also: % is scaled to controls: 0 for no effect and ±100 for the full control effect; nearly all actives have a fitted effect of over 45% in size; luciferase light after 4 h
# Numbers without * were called inactive; ? = inconclusive; . = not tested or not shown; & = joins results of further samples; [ ] = remark or other dose. Unless noted, calls follow the shape of the dose curve; as a rule, active means well fitted rising curve with a large enough effect; inconclusive means small, poorly fitted or top-dose-only effect; inactive means no such curve, though single readings can be large or run the other way. Potency is read from the fitted curve at half-maximal effect.
SMILES,RE007 growth inh,Lassa entry inh,Cruzain noTriton,Cruzain Triton,MARV entry inh,SARS PLpro yeast,NS1 function inh,StopGo reporter
COc1ccc(/C=N/NS(=O)(=O)c2ccccc2)cc1OC,0%,.,.,.,.,2%,5%,-15%
Cc1ccc(NC(=O)COC(=O)CCc2ccccc2)c(Cl)c1,1%,15%,.,.,0%[46.1 µM],-3%,-4%,-15%
CCc1nn(CCCC(=O)N(C)Cc2ccccc2)c(=O)c2cc3occc3n12,5%,-1%[46.1 µM],.,.,-12%[46.1 µM],?,6%,8%
COC(=O)[C@H](CC(C)C)NC(=O)NCCC1=CCCCC1,4%,2%,.,.,13%[46.1 µM],-3%,-2%,-11%
COc1ccccc1NC(=O)C(=O)N(c1cccnc1)C(C(=O)NC(C)(C)C)c1ccccc1F (stereo not drawn),3%,.,.,.,.,1%,2%,39%[activator]
Cc1nnc(N/N=C/c2c[nH]c3ccccc23)[nH]c1=O,4%,.,.,.,.,-1%,-4%,-15%
N#CCCN(Cc1ccccc1)C(=O)Nc1ccc2c(c1)CCO2,4%,.,.,.,.,3%,4%,24%
Cc1cccc(S(=O)(=O)N2CN(CC3CCCO3)c3nc4ccccc4nc32)c1 (stereo not drawn),0%,.,.,.,.,-3%,-14%,-20%
O=C(c1ccncc1)c1nccn1-c1ccccn1,5%,?,-6%,4.5%,12%,5%,1%,.
CC(=O)c1sc(-c2ccc(F)cc2)cc1NS(=O)(=O)c1ccc(C)cc1,8%,0%,.,.,-16%,0%,-1%,-11%
O=C1CC(C(=O)N2CCN(c3ccccn3)CC2)CN1Cc1ccccc1Cl (stereo not drawn),-16%,-10%,.,.,4%,4%,.,-8%
Cc1ccc(Nc2nc(CSc3nnc(-c4ccc(F)cc4)n3C)cs2)cc1,-18%,?,?,-9.6%,-14%,0%,-18%,-13%
COc1cccc(NC(=O)c2cnc(SCC(=O)NCc3ccc4c(c3)OCO4)n(C)c2=O)c1,13%,-11%,.,.,21%,.,.,?
COc1ccc(CNC(=O)CCc2nnc3n(CC(C)C)c(=O)c4ccccc4n23)cc1,.,.,6%,0.5%,-3%[46.1 µM],.,.,-7%
Cc1c(C(=O)c2ccccc2)c2ccccn2c1CCc1ccccn1,3%,?,.,.,?,-7%,17%,-23%
COc1ccc(NC(=O)Cn2ncc3c4ccccc4n(Cc4ccccc4)c3c2=O)cc1OC,.,-17%[46.1 µM],4%,-2.5%,8%[46.1 µM],.,.,0%
Cc1nn(C)cc1CN(C)C(=O)c1cc2nc(-c3ccco3)cc(C(F)(F)F)n2n1,8%,0%,30%,1.1%,?,9%,?,0%
CCCN1C(=O)/C(=C\C=C2/Sc3ccccc3N2CCO)SC1=S,2%,18%[46.1 µM],.,.,-28%[46.1 µM],-8%,.,?
O=C(C1CC1)N(Cc1nc2ccccc2c(=O)[nH]1)Cc1cccs1,-10%,.,.,.,.,-2%,-4%,5%
Cc1ccc(F)cc1NC(=O)C1CCN(c2cnccn2)CC1,7%,-12%,5%,-0.3%,30%,-2%,-2%,-10%
CCOC(=O)C1CCN(C(=O)C2CCN(S(=O)(=O)c3cccc4nsnc34)CC2)CC1,9%,19%[46.1 µM],.,.,?,-1%,-4%,-12%
CC1CCN(S(=O)(=O)c2ccc3c(c2)N(CC(=O)NCCCN2CCCCC2C)C(=O)CS3)CC1 (stereo not drawn),2%,-20%[46.1 µM],-5%,1.1%,.,2%,-3%,-5%&-17%
O=C(CN(c1ccccc1)S(=O)(=O)c1ccc(F)cc1)NC1CCS(=O)(=O)C1 (stereo not drawn),28%,-9%,.,.,-16%[46.1 µM],0%,.,-5%
CCCn1c2ccccc2c2cnn(CC(=O)NCCCN3CCCCC3CC)c(=O)c21 (stereo not drawn),-14%,4%[46.1 µM],.,.,.,-11%,-5%,-25%&1%
COc1cc([C@@H]2Nc3c(F)cccc3[C@@H]3C=CC[C@@H]32)cc(Br)c1OC,.,?,1%,-3.8%,10%[46.1 µM],.,.,-16%
Cc1ccc(-n2nnnc2SCn2nnc3ccccc3c2=O)c(C)c1,14%,?,-5%,-5.3%,-11%,.,4%,?
Cc1noc(C)c1C(=O)N1CCN(c2ccccc2O)CC1,3%,17%,.,.,1%,-6%,.,-17%
CC1CCc2sc(C(=O)OCC(=O)NC(C)C)cc2C1 (stereo not drawn),25%,?,.,.,24%[46.1 µM],-2%,.,11%
COC(=O)CCCCCNc1ccc(C(=O)OC)cc1N,9%,10%,0%,0.3%,14%[46.1 µM],0%,?,-1%
O=C(Oc1ccc(N(C(=O)c2ccncc2)S(=O)(=O)c2cccs2)cc1)c1ccncc1,5%,2%,.,.,3%,-2%,-4%,-4%
COc1cc(-c2cc(C(=O)Nc3ccc(C)c(S(=O)(=O)N4CCOCC4)c3)c3ccccc3n2)cc(OC)c1OC,4%,?,.,.,?,0%,.,-15%
CCOc1ccc(-c2cc(N3C(=O)Nc4ccccc4N3O)on2)cc1,0%,?,-28%,-5.7%,-14%,-1%,7%,-15%
CC(=O)Oc1ccc(-c2ccc(C(=O)O)cc2)cc1,-1%,1%,-5%,2.5%,?,-13%,-52%,-10%
COc1ccc(Cl)cc1NC(=O)C(OC)c1ccccc1 (stereo not drawn),6%,-25%,.,.,?,-3%,-11%,-11%
Cc1ccc(Cl)cc1N1CCN(C(=O)c2cc3c(=O)n(C)c4ccccc4c3n2C)CC1,3%,.,3%,-1.9%,.,5%,-3%,8.9µM*
COc1ccccc1Cc1nc2ccccc2nc1SCC(=O)N1CCCCC1,.,-26%[46.1 µM],17%,-3.0%,.,.,.,23%
O=C(NCCN1CCOCC1)c1ccc([N+](=O)[O-])cc1[N+](=O)[O-],1%,-1%,5%,1.5%,-4%,7%,10%,-1%
COc1cccc(Nc2cc(C)nc3ccccc23)c1,-6%,1%,-7%,-5.7%,?,-21%,-3%,?
CCOC(=O)c1c(CSc2ccc(CC)cc2)oc2ccc(O)c(CN(C)C)c12,29%,?,.,.,4.5µM*,11%,-2%,?
O=C(COC(=O)Cc1cccc(C(F)(F)F)c1)NC1CCS(=O)(=O)C1 (stereo not drawn),2%,2%,.,.,22%,-4%,.,-5%
CC(Oc1ccc(Br)cc1Br)C(=O)Nc1cccnc1Cl (stereo not drawn),6%,.,.,.,.,-6%,-3%,11%
COCCCNCCOc1cc(C(C)C)ccc1C,47%,?,-3%,-2.2%,?,-5%,-7%,-4%
Cc1cc(NC(=O)Nc2cccc(Cl)c2)n(-c2ccccn2)n1,12%,-8%,.,.,?,-6%,-74%,-12%
COc1ccc(/C=C/C(=O)c2cc(Cl)cc(Cl)c2O)c(OC)c1,-1%,0%,.,.,0%,2%,1%,2%
CSCCC(NS(=O)(=O)c1cccs1)C(=O)Nc1ccc(C)c(Cl)c1 (stereo not drawn),.,-8%[46.1 µM],7%,-7.4%,-22%[46.1 µM],.,.,6%
COc1cc(C2NC(=O)NC(C)=C2C(=O)OC(C)(C)C)ccc1OCC(N)=O (stereo not drawn),-1%[3.69 µM],17%,-1%,4.7%,2%,1%,11%,-6%
COc1ccccc1N=Nc1[nH]c2ccc(C)cc2c1O,-16%,?,0%,-2.9%,?,3%,13%,30%[activator]
O=S(=O)(Cc1ccccc1)N1CCCc2ccccc21,4%,3%,.,.,-2%,-1%,.,12%
O=C(COc1ccc(Cl)cc1)Nc1ccc(C(=O)OCc2cc(=O)n3ccsc3n2)cc1,.,-1%[46.1 µM],-4%,0.4%,.,.,.,?
COc1ccc(C(=O)NNC(=O)c2cnccn2)cc1[N+](=O)[O-],-8%[3.69 µM],6%,-4%,5.3%,23%,8%,4%,-16%
COc1ccc(N(CC(=O)Nc2ccc(F)c(F)c2)S(=O)(=O)c2c(C)[nH]c(=O)[nH]c2=O)cc1,-4%,26%[46.1 µM],.,.,3%[46.1 µM],?,2%,9%
CN(CC(=O)Nc1ccccc1C(F)(F)F)C(=O)CSc1nnc(N)s1,7%,3%[46.1 µM],.,.,1%[46.1 µM],1%,.,-17%
O=C(NCCc1ccccc1)C1CC(=O)N(C2CCCC2)C1 (stereo not drawn),1%,.,.,.,.,-4%,7%,-14%
CCC(=O)Nc1nc(N)n(-c2ccccc2)n1,0%,4%,-7%,4.9%,-14%[46.1 µM],1%,6%,9%
CC(C)(C)NC(=O)c1ccc2c(c1)C(=O)N(Cc1ccco1)C2=O,11%,.,.,.,.,-1%,-1%,-4%
O=C(O)CCC(=O)Nc1sc2c(c1C(=O)NC1CCCC1)CCCC2,-8%,0%,.,.,3%,-3%,13%,-8%
CCOc1ccc(C2C(C#N)=C(N)Oc3cc(C)n(Cc4ccco4)c(=O)c32)cc1OC (stereo not drawn),6%,?,16%,-2.6%,-7%,0%,-12%,1%
O=C(/C=C/c1cccc([N+](=O)[O-])c1)n1cnc2ccccc21,-11%,?,.,.,?,1%,0%,14µM*
O=C(C1CCN(Cc2ccc(Cl)cc2)CC1)N1CCN(Cc2ccc3c(c2)OCO3)CC1,-3%,?,.,.,?,-2%,2%,?
N=NC(=O)c1ccccc1Nc1c(O)[nH]c2ccccc12,-23%,6.3µM*,.,.,?,.,.,?
# Additional results follow.
SMILES,RE007 growth inh,Lassa entry inh,Cruzain noTriton,Cruzain Triton,MARV entry inh,SARS PLpro yeast,NS1 function inh,StopGo reporter
COC(=O)c1cccnc1-n1c(=O)c2cccnc2n(CC(=O)Nc2ccc(C)cc2C)c1=O,.,-1%[46.1 µM],-5%,-1.9%,8%[46.1 µM],.,.,8%
COc1ccc(/C=N/Nc2nc(NCc3ccco3)nc(Nc3ccc(OC)cc3)n2)cc1,6%,1%,?,-7.2%,-10%,-4%,?,-3%
CC(C)c1ccc(NC(=O)CCS(=O)(=O)c2ccc3c(c2)CC(=O)N3C)cc1,.,23%[46.1 µM],8%,-3.5%,.,.,.,-18%
O=C(CSc1nnc(C2CC2)n1-c1ccccc1)Nc1ccc(N2CCOCC2)cc1,-17%,-8%,12%,4.6%,2%,-13%,1%,-18%

# Assay outcomes: PubChem BioAssay, National Center for Advancing Translational Sciences (NCATS)
